Source: PubChem
G6PDH counter: inhibits Leuconostoc G6PDH, flagging false hits in G6PDH-based assays | Purified L. mesenteroides G6PDH, diaphorase/resazurin coupled fluorescence, 45 min | inhibition, % at 5 µM | 200,000 compounds, 0.12% hits | AID 1020; in the data active means inhibition above about 50%
Diaph inh CS: inhibits diaphorase or chemically oxidizes, flagging diaphorase assay artifacts; diaphorase resazurin-to-resorufin fluorescence, NADH, 16 min; bacterial (C. kluyveri) enzyme, not human; inhibition, % at 20 µM; 190,000 compounds, 0.69% hits;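 active means primary screen inhibition at 20 µM above a set limit, cut at about 50% in these data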;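 further: plate controls were DMSO with full reaction for no effect and wells lacking NADH for full effect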
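controls = No-NADH positive control and DMSO neutral control | system = Clostridium kluyveri diaphorase enzyme | timing = reaction incubation of 16 min at room temperature | signal = resorufin fluorescence 544/590 nm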
Diaph act CS: counter-screen for diaphorase-based assays: diaphorase activators and chemical reducers. Diaphorase/resazurin coupled assay, resorufin fluorescence, 16 min; hits give high values; 1 = vehicle wells, 0 = NADH-free wells. activation factor at 20 µM. 190,000 compounds, 0.005% hits. AID 1229;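 active means diaphorase activity raised at least twofold by the compound at 20 µM; inactive means activation factor below 2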
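Material: purified diaphorase enzyme from Clostridium kluyveri; Also added: 0.114 mM NADH and 0.1 mM resazurin, final amounts; Doses: single compound dose of 20 µM, 1% DMSO final; Times: 16 min enzyme reaction, ambient temperature; Detection: resorufin fluorescence, excitation 544 nm, emission 590 nm; Measure: increased resorufin signal from activators or reducing compounds.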
FLuc inh counter: Photinus pyralis luciferase inhibition counter-screen | P08659 | ATPLite firefly luciferase biochemical luminescence, 10 min | inhibition, % at 10 µM | 200,000 compounds, 1.5% hits;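 active means inhibition above about 50% when tested at 10 µM, limit read from the data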
Target sequence (P08659 whole entry, looked up): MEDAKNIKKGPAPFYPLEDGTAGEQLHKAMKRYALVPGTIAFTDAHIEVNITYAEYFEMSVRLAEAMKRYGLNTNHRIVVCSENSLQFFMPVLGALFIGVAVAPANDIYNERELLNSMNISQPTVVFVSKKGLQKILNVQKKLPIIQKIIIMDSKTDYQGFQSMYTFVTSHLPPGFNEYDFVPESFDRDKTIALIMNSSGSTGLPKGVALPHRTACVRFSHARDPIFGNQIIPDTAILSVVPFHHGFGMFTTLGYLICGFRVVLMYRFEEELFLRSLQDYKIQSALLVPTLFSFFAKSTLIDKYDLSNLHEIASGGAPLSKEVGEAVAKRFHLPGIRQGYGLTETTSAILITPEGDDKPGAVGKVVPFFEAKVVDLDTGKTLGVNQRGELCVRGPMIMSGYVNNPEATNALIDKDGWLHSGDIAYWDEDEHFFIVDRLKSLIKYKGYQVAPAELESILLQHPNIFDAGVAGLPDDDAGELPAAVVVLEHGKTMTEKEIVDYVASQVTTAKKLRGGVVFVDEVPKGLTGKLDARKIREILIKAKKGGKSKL
FLuc act counter: affects firefly luciferase, flagging false hits in luciferase stimulation screens; activation factor at 10 µM; ATPlite luciferase biochemical, luminescence, 10 min; 0 = ATP-free wells, 1 = DMSO control; 200,000 tested, under 10 active; P08659;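 active means luciferase activation factor, scaled between plate controls, of at least 2 with compound at 10 µM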
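Assay system – cell-free luciferase reagent · Medium – PBS-based ATP solution · Dosing – test compounds dosed from 2 mM stocks in 100% DMSO · Timing – 10 min, room temperature · Technique – light output (luminescence) · Measure – luminescence gain marking luciferase activators · Controls – No-ATP low control, compound-free enzyme-plus-ATP high control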
* = called active by the depositor; & = joins results of further samples. This is a subset; the hit share may differ from the screen's.

Keys: A = G6PDH counter; B = Diaph inh CS; C = Diaph act CS; D = FLuc inh counter; E = FLuc act counter
CN1/C(=C/c2cc[n+](C)c3ccccc23)C=Cc2ccccc21
  A = 41 | B = 28 | C = 0.7 | D = 32 | E = 0.7
CN(C)CCN(Cc1cccs1)c1ccccn1
  A = 14 | B = 3 | C = 1 | D = -3 | E = 1
Cc1ccccc1C(OCCN(C)C)c1ccccc1 (stereo not drawn)
  A = 9&9 | B = 18&9 | C = 0.8&0.9 | D = -3&-4 | E = 1&1
Cc1cc(C)n2nc(-c3ccccc3)cc2n1
  A = 12 | B = 14 | C = 0.9 | D = 31 | E = 0.7
CC(=O)N1CCN(c2ccc(OC[C@H]3CO[C@](Cn4ccnc4)(c4ccc(Cl)cc4Cl)O3)cc2)CC1
  A = 7&10 | B = -3&-2 | C = 1&1 | D = -3&-6 | E = 1&1.1
O=C(O)c1ccc(N/N=C/c2ccc(C(F)(F)F)cc2)cc1
  A = 3 | B = 4 | C = 1 | D = 28 | E = 0.7
C[C@]12C[C@H](O)[C@H]3[C@@H](CCC4=CC(=O)CC[C@@]43C)[C@@H]1CC[C@@H]2C(=O)CO
  A = 13 | B = 4 | C = 1 | D = -5 | E = 1.1
COCCCC/C(=N\OCCN)c1ccc(C(F)(F)F)cc1
  A = 21&9 | B = 2&2 | C = 1&1 | D = 4&2 | E = 1&1

Arranged by formula weight (low to high): three of the compounds above.
Keys: A = G6PDH counter; B = Diaph inh CS; C = Diaph act CS; D = FLuc inh counter; E = FLuc act counter
Cc1ccccc1C(OCCN(C)C)c1ccccc1 (stereo not drawn)
  A = 9&9 | B = 18&9 | C = 0.8&0.9 | D = -3&-4 | E = 1&1
C[C@]12C[C@H](O)[C@H]3[C@@H](CCC4=CC(=O)CC[C@@]43C)[C@@H]1CC[C@@H]2C(=O)CO
  A = 13 | B = 4 | C = 1 | D = -5 | E = 1.1
CC(=O)N1CCN(c2ccc(OC[C@H]3CO[C@](Cn4ccnc4)(c4ccc(Cl)cc4Cl)O3)cc2)CC1
  A = 7&10 | B = -3&-2 | C = 1&1 | D = -3&-6 | E = 1&1.1

Fetched by compound from the list above, 4 records:
Keys: A = G6PDH counter; B = Diaph inh CS; C = Diaph act CS; D = FLuc inh counter; E = FLuc act counter
CC(=O)N1CCN(c2ccc(OC[C@H]3CO[C@](Cn4ccnc4)(c4ccc(Cl)cc4Cl)O3)cc2)CC1
  A = 7&10 | B = -3&-2 | C = 1&1 | D = -3&-6 | E = 1&1.1
Cc1cc(C)n2nc(-c3ccccc3)cc2n1
  A = 12 | B = 14 | C = 0.9 | D = 31 | E = 0.7
C[C@]12C[C@H](O)[C@H]3[C@@H](CCC4=CC(=O)CC[C@@]43C)[C@@H]1CC[C@@H]2C(=O)CO
  A = 13 | B = 4 | C = 1 | D = -5 | E = 1.1
CN(C)CCN(Cc1cccs1)c1ccccn1
  A = 14 | B = 3 | C = 1 | D = -3 | E = 1
